Bioassay records from PubChem BioAssay.
NPYLR7 ag – activates Aedes aegypti NPYLR7 receptor. 270,000 compounds, 0.15% hits. activation, % at 10 µM. HEK293T NPYLR7/Galpha15, GCaMP6s calcium fluorescence; in the data active = activation above about 40%;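 also: 0% = vehicle and 100% = reference agonist at the receptor; some compounds past the cut are filed as inactive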
NPYLR7 ag max-min – recorded beside NPYLR7 ag, whose call it bears; activation, %; measured here: Max-Min RFU normalised activation; some inactives read as strong as hits;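 span of the calcium signal over five minutes; 0% = vehicle and 100% = native peptide agonist; compound fluorescence can raise it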
Starred values were filed as active, the others as inactive.

SMILES	NPYLR7 ag	NPYLR7 ag max-min
COC(=O)c1c(C)cccc1NCC(=O)Nc1ccccc1F	-1	0
CCCCCCn1c(SCC(C)=O)nc2c1c(=O)[nH]c(=O)n2C	0	-1
C=CCNC(=O)COc1coc(CN2CCN(c3cccc(Cl)c3)CC2)cc1=O	-2	24
COc1ccc(C(=O)CN2CCC(C(=O)NC(c3ccc(Cl)cc3)c3ncccc3C)CC2)cc1 (configuration not stated)	7	-1
CC(=O)N1CCN(Cc2nc3scc(-c4ccc5c(c4)OCO5)c3c(=O)[nH]2)CC1	-4	-1
CC(C)Cn1c(=S)[nH]c2scc(-c3cccs3)c2c1=O	1	4
Cc1ncc2c(c1CNC(=O)c1ccc3c(c1)OCO3)CCN(C(=O)C(C)Oc1ccccc1)C2 (configuration not stated)	-2	-6
CCOC(=O)CCC(=O)N1CCN(c2nc3ccccc3nc2C)CC1	15	3
CC1(C(=O)NS(=O)(=O)c2ccc(C#N)cc2)CCN1C(=O)Cc1ccc(Cl)cc1Cl (configuration not stated)	4	-2
O=C1C(=O)N(C23CC4CC(CC(C4)C2)C3)C(=S)N1c1ccccc1	4	2
O=c1c2ccccc2nc(-c2ccccc2I)n1CCc1ccccc1	3	1
O=c1cc(-c2cc3ccccc3oc2=O)c2ccc(O)cc2o1	4	1
Cc1ccc(C(c2ccccc2)N2CCN(S(=O)(=O)c3ccc(F)cc3)CC2)cc1 (configuration not stated)	4	6
Cc1ccccc1COc1cn(CC(=O)Nc2cccc(C(F)(F)F)c2)c(CO)cc1=O	3	3
CCCNC(=O)N1CCc2cc(OC)c(OC)cc2C1CNC(=O)Nc1ccc(C)cc1 (configuration not stated)	10	14
Cc1cc(Cl)ccc1S(=O)(=O)NCc1nccn1C(F)F	6	1
O=C(NCc1cccc(C(F)(F)F)c1)c1cc(-c2ccccc2)nn1-c1ccc(F)cc1	-2	8
COc1ccc2c(c1)C1(SCCN1C(=O)Nc1cccc(F)c1)C(=O)N2Cc1ccccc1F (configuration not stated)	2	0
COC(=O)c1cc(-c2ccccc2)nc2c1c(C)nn2C1CCS(=O)(=O)C1 (configuration not stated)	13	6
Clc1ccc2c(N3CCOCC3)nc(-c3cccs3)nc2c1	-2	9

Rewritten comma-delimited: 2 of the compounds above.
SMILES,NPYLR7 ag,NPYLR7 ag max-min
COc1ccc(C(=O)CN2CCC(C(=O)NC(c3ccc(Cl)cc3)c3ncccc3C)CC2)cc1 (configuration not stated),7,-1
Clc1ccc2c(N3CCOCC3)nc(-c3cccs3)nc2c1,-2,9

Continued:
SMILES	NPYLR7 ag	NPYLR7 ag max-min
CC1(C)CC(=O)C=C(C(=O)N2CCC3(CCNC3=O)CC2)O1	10	11
O=C(c1ccco1)N1CCCN(c2nccc(N3CCCC(O)C3)n2)CC1 (configuration not stated)	2	1
COCCn1cc(C(=O)Nc2cccnc2)c2nn(-c3ccccc3)c(=O)c-2c1	3	3
CC(=O)Oc1ccc(/C=C2\N=C(c3ccc4c(c3)OCO4)OC2=O)cc1	-1	-5
O=c1[nH]c(NC2CCCC2)nnc1Cc1ccc(F)cc1	8	3
O=C(C=Cc1ccc(F)cc1)N1CCN(S(=O)(=O)c2ccc3c(c2)OCCCO3)CC1	3	18
Cc1cccc(-c2nc(C)c(C(C)C)c(N3CCN(C(=O)c4ccc(Cl)cc4)CC3)n2)c1	4	8
Cc1cc(C)nc(NS(=O)(=O)c2ccc(NS(=O)(=O)c3ccc4c(c3)OCCO4)cc2)n1	3	1
CCCn1c(=O)c(C(=O)Nc2ccccc2C)c(O)c2ccccc21	-6	-11
CN1C(=O)c2cccc(NC(=O)/C=C/c3ccccc3Cl)c2C1=O	-6	-8
Cc1cc(C)c2sc(NCC(C)C)nc2c1	4	6
Cc1ccc(Cl)c(OC2CC3CCC(C2)N3C(=O)c2ccc(CSc3nnnn3C)cc2)c1 (configuration not stated)	6	-3
Nc1n[nH]c(C(=O)N2CCCC(COc3cccc(F)c3)C2)n1 (configuration not stated)	-1	-7
CNc1cnc(-c2c(OC)cccc2OC)cn1	2	-1
Cc1nn(C)c(C)c1CC(=O)N(c1ccc(O)cc1)S(=O)(=O)c1ccccc1	10	7
Cc1nn(-c2ccccc2Cl)c(C)c1CCC(=O)N(C)CCc1ccncc1	10	3
Cc1c(Cl)c(C(F)(F)F)nn1CC(=O)NC(C)(C)C	-6	-11
COc1ccc(NC(=O)c2sc(=O)n(Cc3ccc(C(=O)N(C)C)cc3)c2C)cc1	2	-2
N#CC1(C#N)[C@@H]2c3ccccc3C=CN2[C@@H](C(=O)c2ccc(F)cc2)[C@@H]1c1ccc(F)cc1	13	3
CCN1CCN(C(=O)CCN(C)S(C)(=O)=O)C(C)C1=O (configuration not stated)	7	5

Retrieved by compound from the entries so far:
SMILES	NPYLR7 ag	NPYLR7 ag max-min
Cc1cc(C)c2sc(NCC(C)C)nc2c1	4	6
Cc1nn(C)c(C)c1CC(=O)N(c1ccc(O)cc1)S(=O)(=O)c1ccccc1	10	7
Cc1c(Cl)c(C(F)(F)F)nn1CC(=O)NC(C)(C)C	-6	-11
COCCn1cc(C(=O)Nc2cccnc2)c2nn(-c3ccccc3)c(=O)c-2c1	3	3
CN1C(=O)c2cccc(NC(=O)/C=C/c3ccccc3Cl)c2C1=O	-6	-8
Cc1ccc(Cl)c(OC2CC3CCC(C2)N3C(=O)c2ccc(CSc3nnnn3C)cc2)c1 (configuration not stated)	6	-3

Carrying on:
SMILES	NPYLR7 ag	NPYLR7 ag max-min
Fc1ccccc1-c1cn2c(n1)sc1ccccc12	3	-1
COc1ccccc1-c1onc(C)c1C(=O)NCCSCc1ccccc1	5	-2
CSc1ccc(NC(=O)N2CCN(c3nc(-c4ccc(C)cc4)nc(C)c3C(C)C)CC2)cc1	21	25
COc1ncccc1C(=O)NCCc1ccc(Cl)s1	0	-1
C=CCn1c(SCC(=O)c2cc(C)n(CCOC)c2C)nc2scc(-c3ccccc3)c2c1=O	-11	-16
COc1ccc(S(=O)(=O)CC(=O)N(CCN(C)C)c2nc3c(C)ccc(Cl)c3s2)cc1	5	2
O=c1c(CNCc2ccc(F)cc2)coc2ccccc12	19	7
Cc1nc(N=Nc2ccc(C(=O)O)cc2)c(COP(=O)(O)O)c(C=O)c1O	1	-39
COc1cccc(Cc2nc3c(c(N4CCOCC4)n2)CN(C(=O)CC(C)C)CC3)c1	16	11
COc1ccc(S(=O)(=O)Oc2ccccc2CN(Cc2ccc(F)cc2)C(=O)Nc2ccccc2OC)cc1	-6	0
CCCn1cc(NC(=O)N(C)CCN(C)C2CCCCC2)ccc1=O	5	2
COCC(=O)Oc1c(S(=O)(=O)c2ccc([N+](=O)[O-])cc2)c(C)nn1-c1ccccc1	0	26
CN(CC1CCCCO1)C(=O)CCn1nnnc1CN1CCOCC1 (configuration not stated)	-2	-1
CCc1nnc(Cn2c3c(sc2=O)CCCC3)o1	3	1
NC(=O)CCn1cc(CN2CCOC3(CNCCOC3)C2)c2ccccc21 (configuration not stated)	5	2
COc1cccc(OC)c1C(=O)N1CCC2(CC1)C(=O)N(CC(=O)NCc1ccc(F)cc1)CN2c1ccccc1	-2	2
CCOC(=O)c1c(C)nc2sc(C)nn12	6	9
CC(C)c1ccc(CN2CCCC(O)(CN(C)Cc3ccoc3)C2=O)cc1 (configuration not stated)	6	4
COC(=O)C1=C(C)NC2=C(C(=O)CCC2)C1c1ccccc1I (configuration not stated)	-1	-3
CC(=O)C(C)n1c(CN2CCN(Cc3ccccc3)CC2)nc2c1c(=O)n(C)c(=O)n2C (configuration not stated)	2	12
CCOC(=O)Cc1c(C)nc2ncnn2c1N1CCN(C(=O)C2CCCCC2)CC1	16	10
COCCN(Cc1c(C)nn(C(C)C)c1C)CC1CCCN(C2Cc3ccccc3C2)C1 (configuration not stated)	0	-4
O=C(NCCn1nc(-c2ccncc2)ccc1=O)c1ccc(-c2ccccc2)cc1	8	-2
Cc1ccc(-c2nn(CC(=O)Nc3ccc(F)cc3)c(=O)c3nc(C)sc23)cc1	10	8
Cc1nc(C(F)(F)F)nc(N2CCc3nnc(C4CCCO4)n3CC2)c1C (configuration not stated)	-4	-5
O=C1NCCN1CCNS(=O)(=O)c1ccc2ccccc2c1	-1	-3
O=C1c2ccc([N+](=O)[O-])cc2C(=O)N1CN(C(=O)c1ccccc1)c1ccc(F)cc1	-3	-6
COc1ccc(CCNC(=O)c2cc3c(=O)n(C)c(=O)n(C)c3n2Cc2ccccc2)cc1	11	9
CCOc1c(CC)cnc2c1c(=O)n(CC(=O)NC1CCCC1)c(=O)n2C	-4	-6
CCC(CC)(NCN1C(=O)CN(c2ccccc2)C1=O)c1ccc(Cl)cc1	5	3
CCOC(=O)COc1ccc(C)cc1-c1ccno1	-2	-5
Cc1ccc(C)c(NC(=O)CN(C)C(=O)C2CCCN(c3cnccn3)C2)c1 (configuration not stated)	8	4
Cc1cc(C)cc(C(=O)OCCN2C(=O)c3cccc4c(N5CCCCC5)ccc(c34)C2=O)c1	-14	-26
CNc1cccc(-c2ccccc2O)n1	2	0
CN(c1ccccc1NCC(=O)N1CCN(C(=O)C2CC2)CC1)C1CCCC1	14	12
COCCN(Cc1ccc(C)cc1)CC1CCOC1 (configuration not stated)	8	7
CC(C)CNC(=O)c1c(O)nc2ccccn2c1=O	0	24
O=S(=O)(c1ccc(F)cc1)N1CCCC(OCc2cc(F)cc(F)c2)C1 (configuration not stated)	-2	0
COCC(=O)Nc1ccc(Nc2ccc(-n3ccc(C)n3)nn2)cc1	-6	-8
CC(C)CN(CCC(=O)NCc1ccccc1)c1nc(C2CC2)nc2ccccc12	-2	8
O=C1CSC(c2ccccc2F)N1c1ccccc1 (configuration not stated)	-5	-5
CC(COc1cccc(C#N)c1)OC(=O)c1ncoc1C(C)C (configuration not stated)	10	8
Cc1cc(C)cc(N2CCN(C(=O)C3CCC3)C(C)C2=O)c1 (configuration not stated)	-11	-3
COc1cccc(C(=O)Oc2coc(CSc3ncccn3)cc2=O)c1OC	-12	-4
Cc1ccc(NC(=O)CN2CC3CCCCN3CC2C)cc1 (configuration not stated)	-3	520
CCCN(C/C=C/c1ccccc1)C(=O)Cc1ccc2c(c1)NC(=O)CO2	-5	-7
COc1ccc(OCC2CN(C(=O)Cc3cc(OC)cc(OC)c3)CCO2)cc1 (configuration not stated)	21	27
CC1=CCC=CC1C(=O)N1CCOC(c2ccccc2)C1 (configuration not stated)	23	30
O=C1NC2(CCN(Cc3ccccc3C(F)(F)F)CC2)Nc2cc(Cl)ccc21	5	26
CC1CCN(c2cc3c(cc2F)c(=O)c(-c2nc(-c4ccc5c(c4)OCO5)no2)cn3C)CC1	-11	-11
CCCn1c(CN2CCCCC2)n[nH]c1=O	15	9
CCN(CC)c1nc(N)c2c(N)nc3c(c2c1C#N)CC(CCl)O3 (configuration not stated)	0	-3
Cc1cn2c3c(=O)n(Cc4ccc(F)cc4)c(=O)n(C)c3nc2n1CCN1CCOCC1	1	17
CCCCOc1cccc2c1CCN(CC)C2=O	1	4
COC(=O)[C@@H](NC(=O)N(Cc1ccncc1)C1CCN(C)CC1)C(C)C	13	8
CCOCc1cc(C(=O)NS(C)(=O)=O)ccc1OC	-4	-5
Cc1cc(C)n(C(C[N+](=O)[O-])c2ccccc2)n1 (configuration not stated)	1	-4
Cc1nc(C)c(CN2CCC(n3cc(CC(C)O)nn3)CC2)nc1C (configuration not stated)	1	0
Cc1cc(C)n(C(C)C(=O)NCC(=O)Nc2ccc(F)c(F)c2F)n1 (configuration not stated)	-5	-4
CC(C)(CCl)C(=O)N1CCN(c2cc(Oc3ccccc3Cl)ncn2)CC1	5	5

Whole records from above.
CC1CCN(c2cc3c(cc2F)c(=O)c(-c2nc(-c4ccc5c(c4)OCO5)no2)cn3C)CC1 is listed with NPYLR7 ag: -11; NPYLR7 ag max-min: -11
CCN(CC)c1nc(N)c2c(N)nc3c(c2c1C#N)CC(CCl)O3 (configuration not stated) is listed with NPYLR7 ag: 0; NPYLR7 ag max-min: -3

Next part.
SMILES	NPYLR7 ag	NPYLR7 ag max-min
CN1CCN(Cn2c(=S)n(CN3CCN(C)CC3)c3ccccc32)CC1	1	0
Cc1cc(C(=O)O)n2nc(-c3ccc(Cl)cc3)cc2n1	-10	-10
COCC(=O)Nc1cccc(CNc2cc(C#N)nc3ccccc23)c1	1	-2
Fc1cccc(-c2nnn3c2nc(Cl)c2ccccc23)c1	-9	-14
COc1ccc(CN(CCc2c[nH]c3ccccc23)Cc2nc(C(=O)N3CCCC3)co2)c(OC)c1	19	17
COc1ccc(Br)c(-c2nc(=S)nc(N)[nH]2)c1	4	13
COc1ccccc1C(=O)COC(=O)c1ccc(Cl)c(N)c1	3	12
CS(=O)(=O)c1ccc(-c2nn[nH]n2)cc1	-6	-10
CCCCN1N=C(C)C(C)n2c1nc1c2c(=O)n(CCC)c(=O)n1C (configuration not stated)	8	12
CCc1nc2c(OCC(=O)C(C)(C)C)cccn2c1N(C)C(=O)C1CC1	2	0
Cc1csc(SCc2cc(=O)c(OC(=O)c3ccccc3)co2)n1	8	5
Cc1ccc(C)c(S(=O)(=O)NN=Cc2ccc3ncccc3c2)c1	-1	17
Cc1ccc(CN(Cc2ccc(F)cc2)C(=O)CNCCCN2CCOCC2)o1	-9	0
COc1ccc(C(=O)N(Cc2ccccc2)C2CCC(NC(=O)C3CCN(C(=O)c4ccccc4OC)CC3)CC2)cc1 (configuration not stated)	1	10
CC(c1ncc(C(C)(C)C)o1)N1CCOC(c2cccc(Br)c2)C1 (configuration not stated)	4	1
CC(C)S(=O)(=O)Oc1ccc(CN(Cc2ccc(F)cc2)C(=O)c2cccs2)cc1	27	17

As entered above.
Result of `CS(=O)(=O)c1ccc(-c2nn[nH]n2)cc1` in NPYLR7 ag max-min: -10
Result of `CC(C)S(=O)(=O)Oc1ccc(CN(Cc2ccc(F)cc2)C(=O)c2cccs2)cc1` in NPYLR7 ag: 27
Result of `CCc1nc2c(OCC(=O)C(C)(C)C)cccn2c1N(C)C(=O)C1CC1` in NPYLR7 ag max-min: 0
Result of `Fc1cccc(-c2nnn3c2nc(Cl)c2ccccc23)c1` in NPYLR7 ag max-min: -14
Result of `CN1CCN(Cn2c(=S)n(CN3CCN(C)CC3)c3ccccc32)CC1` in NPYLR7 ag max-min: 0

The list is partial (hit frequency here may not be typical).
